Screens: PubChem, Broad Institute
Vaccinia stage: blocks a specific stage of Vaccinia orthopoxvirus infection; Vaccinia-infected cells, mCherry/Venus stage reporter fluorescence; hits give low values; some inactives read as strong as hits; 0.01% of 89,000 active; activity change (mCherry), % (no concentration beside the values); AID 1053133;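 active means mCherry past -33% and 40 or more points under the early reporter, replicates agreeing; inconclusive means past -33% without that gap or agreement; tested in A549 cells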;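 further: scaled between vehicle wells and reference inhibitor wells; 23 nL library stock went into each well; one replicate is shown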
Vaccinia stage Venus: also measured in Vaccinia stage; calls as there; activity change (Venus), %; measured here: Venus reporter, other viral stage;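 negative = less Venus signal; first of two replicates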
* marks the source's active call; other numbers are inactive results. An excerpt. The share of hits here may be higher or lower than overall.

C[C@H]1CN([C@@H](C)CO)S(=O)(=O)c2ccc(-c3cccc(F)c3)cc2O[C@H]1CN(C)S(C)(=O)=O was read as Vaccinia stage -1.5 and Vaccinia stage Venus -19.0.
`COCC(=O)Nc1ccc2c(c1)OC[C@@H](C)NC[C@@H](C)[C@@H](OC)CN(C)C2=O` gave Vaccinia stage 0.8 and Vaccinia stage Venus 2.1.
CCCNC(=O)N1CC(=O)N2[C@H](C1)[C@@H](c1ccc(-c3cccc(C)c3)cc1)[C@@H]2CO was read as Vaccinia stage -17.3 and Vaccinia stage Venus -37.7.
Screening C[C@@H]1CCCCO[C@@H](CN(C)Cc2ccc(C(=O)O)cc2)[C@H](C)CN([C@@H](C)CO)C(=O)c2cc(NS(=O)(=O)c3ccc(Cl)cc3)ccc2O1 returned Vaccinia stage 23.1 and Vaccinia stage Venus 6.3.
Screening C[C@H](CO)N1C[C@H](C)[C@H](CN(C)Cc2ccc(-c3ccccc3)cc2)Oc2ccc(NC(=O)NC3CCCCC3)cc2C1=O returned Vaccinia stage -25.8 and Vaccinia stage Venus -16.3.
CO[C@@H]1CN(C)C(=O)c2cc(NS(=O)(=O)c3ccccc3)ccc2OC[C@@H](C)N(Cc2cccnc2)C[C@H]1C was read as Vaccinia stage 3.6 and Vaccinia stage Venus 3.9.
`CCC(=O)N(C)C[C@H]1Oc2cc(C#CCN(C)C)ccc2S(=O)(=O)N([C@H](C)CO)C[C@H]1C` gave Vaccinia stage -10.1 and Vaccinia stage Venus 2.5.
For CC(C)CC#Cc1cnc2c(c1)C(=O)N([C@@H](C)CO)C[C@H](C)[C@@H](CN(C)Cc1ccccc1C(=O)O)O2 the results were Vaccinia stage 1.3 and Vaccinia stage Venus -3.5.
`O=C(C[C@H]1C=C[C@@H](NC(=O)Nc2cccc(F)c2)[C@@H](CO)O1)NCC1CCCCC1` gave Vaccinia stage -14.3 and Vaccinia stage Venus -5.4.
O=C(C[C@@H]1C[C@@H]2c3cc(NC(=O)Nc4ccccc4)ccc3O[C@@H]2[C@H](CO)O1)NCc1ccccn1 was read as Vaccinia stage 7.2 and Vaccinia stage Venus 5.0.
Screening CN1C[C@H]2[C@@H](c3ccccc31)[C@@H](CO)N2Cc1ccccc1 returned Vaccinia stage -0.9 and Vaccinia stage Venus -5.9.
For COc1ccc(NC(=O)Nc2ccc3c(c2)[C@@H]2C[C@@H](CC(=O)NC4CCCCC4)O[C@@H](CO)[C@@H]2O3)cc1 the results were Vaccinia stage -0.1 and Vaccinia stage Venus 3.4.
CN1C(=O)c2cc(NC(=O)Nc3cccc(Cl)c3)ccc2OC[C@@H]2O[C@H](CC(=O)NCCc3ccncc3)CC[C@H]21 was read as Vaccinia stage -4.2 and Vaccinia stage Venus -12.7.
C[C@@H]1CN([C@@H](C)CO)C(=O)c2cc(C3=CCCC3)cnc2O[C@@H]1CN(C)S(C)(=O)=O was read as Vaccinia stage 21.7 and Vaccinia stage Venus 17.3.
`C[C@@H]1CCCCO[C@@H](CN(C)S(=O)(=O)c2ccc(F)cc2)[C@H](C)CN([C@@H](C)CO)C(=O)c2cc(NC(=O)Nc3cccc4ccccc34)ccc2O1` gave Vaccinia stage -1.4 and Vaccinia stage Venus 10.2.
`CC(=O)N(C)C[C@@H]1Oc2cc(-c3ccccc3)ccc2S(=O)(=O)N([C@H](C)CO)C[C@H]1C` gave Vaccinia stage 11.5 and Vaccinia stage Venus -5.6.
C[C@@H]1CCCCO[C@@H](CN(C)Cc2ccncc2)[C@H](C)CN([C@@H](C)CO)C(=O)c2cc(NC(=O)c3ccncc3)ccc2O1 was read as Vaccinia stage 15.5 and Vaccinia stage Venus 9.2.
CO[C@H]1CN(C)C(=O)c2cc(NC(=O)C3CCCC3)ccc2OC[C@H](C)N(CCC(F)(F)F)C[C@@H]1C was read as Vaccinia stage -19.4 and Vaccinia stage Venus -8.7.
Screening CCC(=O)N1[C@H](CO)[C@H]2c3ccccc3N(S(=O)(=O)c3ccccc3F)C[C@H]21 returned Vaccinia stage 9.1 and Vaccinia stage Venus 4.0.
For COCCNC(=O)C[C@H]1C[C@@H]2c3cc(NC(=O)C4CCC4)ccc3O[C@@H]2[C@H](CO)O1 the results were Vaccinia stage 0.2 and Vaccinia stage Venus -0.4.
For COc1ccc(S(=O)(=O)N(C)C[C@H]2Oc3c(NS(=O)(=O)c4ccccc4)cccc3C(=O)N([C@@H](C)CO)C[C@@H]2C)cc1 the results were Vaccinia stage 5.2 and Vaccinia stage Venus 0.5.
For Cc1ccc(S(=O)(=O)Nc2ccc3c(c2)C(=O)N([C@H](C)CO)C[C@H](C)[C@H](CN(C)C(=O)Nc2ccc(C(F)(F)F)cc2)OCCCC[C@@H](C)O3)cc1 the results were Vaccinia stage -2.4 and Vaccinia stage Venus 0.9.
CC(=O)N(C)C[C@H]1[C@H](c2ccc(-c3ccccc3F)cc2)[C@@H](CO)N1C(C)=O was read as Vaccinia stage -5.5 and Vaccinia stage Venus -0.3.
Screening CC(C)NC(=O)Nc1cccc2c1O[C@H](CN(C)C(=O)Nc1ccc3c(c1)OCO3)[C@H](C)CN([C@@H](C)CO)C2=O returned Vaccinia stage 8.0 and Vaccinia stage Venus 2.0.
Screening C[C@H](CO)N1C[C@H](C)[C@H](CN(C)C(=O)Nc2ccc(F)cc2)OCCCC[C@H](C)Oc2ccc(NC(=O)CCCN(C)C)cc2C1=O returned Vaccinia stage 12.6 and Vaccinia stage Venus 13.1.
O=S(=O)(c1ccccc1)N1CC2(C1)[C@H](c1ccccc1)[C@@H](CO)N2CC1CC1 was read as Vaccinia stage 2.7 and Vaccinia stage Venus 8.7.
C[C@H](CO)N1C[C@H](C)[C@@H](CN(C)C(=O)NC2CCCC2)Oc2ncc(-c3ccccc3F)cc2C1=O was read as Vaccinia stage 6.3 and Vaccinia stage Venus -2.9.
For CO[C@H]1CC[C@H]2CCOc3c(C#N)cccc3C(=O)N(C)C[C@@H](C)C(=O)N(C)C[C@H]1O2 the results were Vaccinia stage 6.8 and Vaccinia stage Venus 18.2.
OC[C@H]1[C@H](c2ccc(Br)cc2)[C@H]2CN(Cc3ccccn3)CCCCN21 was read as Vaccinia stage 11.1 and Vaccinia stage Venus 8.3.
For CO[C@H]1CN(C)C(=O)c2cc(NC(=O)c3ccc(F)cc3)ccc2OC[C@H](C)N(C)C[C@@H]1C the results were Vaccinia stage -0.5 and Vaccinia stage Venus 0.2.

7 entries out of the list, sorted by length of the SMILES, ascending:
O=S(=O)(c1ccccc1)N1CC2(C1)[C@H](c1ccccc1)[C@@H](CO)N2CC1CC1 was read as Vaccinia stage 2.7 and Vaccinia stage Venus 8.7.
`O=C(C[C@H]1C=C[C@@H](NC(=O)Nc2cccc(F)c2)[C@@H](CO)O1)NCC1CCCCC1` gave Vaccinia stage -14.3 and Vaccinia stage Venus -5.4.
`CCC(=O)N(C)C[C@H]1Oc2cc(C#CCN(C)C)ccc2S(=O)(=O)N([C@H](C)CO)C[C@H]1C` gave Vaccinia stage -10.1 and Vaccinia stage Venus 2.5.
CN1C(=O)c2cc(NC(=O)Nc3cccc(Cl)c3)ccc2OC[C@@H]2O[C@H](CC(=O)NCCc3ccncc3)CC[C@H]21 was read as Vaccinia stage -4.2 and Vaccinia stage Venus -12.7.
For COc1ccc(S(=O)(=O)N(C)C[C@H]2Oc3c(NS(=O)(=O)c4ccccc4)cccc3C(=O)N([C@@H](C)CO)C[C@@H]2C)cc1 the results were Vaccinia stage 5.2 and Vaccinia stage Venus 0.5.
Screening C[C@@H]1CCCCO[C@@H](CN(C)Cc2ccc(C(=O)O)cc2)[C@H](C)CN([C@@H](C)CO)C(=O)c2cc(NS(=O)(=O)c3ccc(Cl)cc3)ccc2O1 returned Vaccinia stage 23.1 and Vaccinia stage Venus 6.3.
For Cc1ccc(S(=O)(=O)Nc2ccc3c(c2)C(=O)N([C@H](C)CO)C[C@H](C)[C@H](CN(C)C(=O)Nc2ccc(C(F)(F)F)cc2)OCCCC[C@@H](C)O3)cc1 the results were Vaccinia stage -2.4 and Vaccinia stage Venus 0.9.

Next part
For COCCNC(=O)[C@@H]1[C@@H](CO)[C@@H]2Cn3c(ccc(-c4ccccc4F)c3=O)[C@@H]2N1C(=O)C1CCCC1 the results were Vaccinia stage -2.0 and Vaccinia stage Venus 9.5.
Screening C[C@H]1CN([C@@H](C)CO)C(=O)c2cc(NC(=O)c3ccncc3)ccc2O[C@H]1CN(C)S(=O)(=O)c1cn(C)cn1 returned Vaccinia stage 20.0 and Vaccinia stage Venus 11.3.
Screening COc1ccc(-c2ccc([C@H]3[C@H]4CN(CC5CCOCC5)CCCCN4[C@H]3CO)cc2)cc1 returned Vaccinia stage -10.2 and Vaccinia stage Venus -5.5.
Screening C[C@@H]1CN([C@H](C)CO)C(=O)CCCn2cc(nn2)CO[C@@H]1CN(C)Cc1ccncc1 returned Vaccinia stage 7.9 and Vaccinia stage Venus 2.8.
`CS(=O)(=O)N1[C@H](C#N)[C@H](c2ccc(C#CC3CCCC3)cc2)[C@@H]1CO` gave Vaccinia stage -2.6 and Vaccinia stage Venus 2.5.
CC(=O)N1[C@H](C(=O)NCc2ccccc2F)[C@@H](CO)[C@@H]2Cn3c(cccc3=O)[C@@H]21 was read as Vaccinia stage 17.8 and Vaccinia stage Venus 6.1.
For COc1ccc(S(=O)(=O)Nc2cccc3c2O[C@H](CN(C)Cc2ccc(C(F)(F)F)cc2)[C@@H](C)CN([C@H](C)CO)C3=O)cc1 the results were Vaccinia stage -8.0 and Vaccinia stage Venus -3.0.
For CC(C)NC(=O)Nc1ccc2c(c1)C(=O)N([C@@H](C)CO)C[C@@H](C)[C@@H](CN(C)C)OCCCC[C@H](C)O2 the results were Vaccinia stage -5.7 and Vaccinia stage Venus -17.6.
For C[C@@H]1CN([C@@H](C)CO)C(=O)c2cccc(NS(=O)(=O)c3ccc(F)cc3)c2O[C@@H]1CN(C)C(=O)NC1CCCCC1 the results were Vaccinia stage -7.7 and Vaccinia stage Venus -11.6.
Screening COc1ccc(CN(C)C[C@@H]2Oc3ccc(NS(=O)(=O)c4ccc(OC)cc4)cc3C(=O)N([C@H](C)CO)C[C@@H]2C)cc1 returned Vaccinia stage 2.7 and Vaccinia stage Venus 1.7.
For C[C@@H]1CN([C@H](C)CO)C(=O)CCCn2cc(nn2)CO[C@H]1CN(C)Cc1ccccc1C(=O)O the results were Vaccinia stage 19.3 and Vaccinia stage Venus 11.5.
`CCCNC(=O)N1[C@H](CO)[C@@H](c2ccccc2-c2ccc(C)cc2)[C@@H]1C#N` gave Vaccinia stage 7.7 and Vaccinia stage Venus 3.4.
Screening COc1ccc(NC(=O)Nc2ccc3c(c2)[C@H]2C[C@@H](CC(=O)NCCc4ccccc4)O[C@@H](CO)[C@H]2O3)cc1 returned Vaccinia stage 1.2 and Vaccinia stage Venus 3.6.
C[C@H]1CN([C@@H](C)CO)C(=O)c2cc(-c3ccccc3)cnc2O[C@H]1CN(C)C(=O)C1CCOCC1 was read as Vaccinia stage 22.3 and Vaccinia stage Venus 5.1.
For Cc1noc(C)c1NC(=O)N(C)C[C@@H]1Oc2c(NS(=O)(=O)c3ccc(F)cc3)cccc2C(=O)N([C@H](C)CO)C[C@@H]1C the results were Vaccinia stage 12.3 and Vaccinia stage Venus 6.5.
CC(C)NC(=O)N1[C@@H](CO)[C@@H](c2ccccc2)C12CN(C(=O)Cc1ccccc1)C2 was read as Vaccinia stage -9.6 and Vaccinia stage Venus -3.7.
C[C@@H]1CN([C@@H](C)CO)C(=O)c2cc(NC(=O)c3ccncc3)ccc2O[C@@H](C)CCCCO[C@H]1CN(C)Cc1ccc2c(c1)OCO2 was read as Vaccinia stage 7.5 and Vaccinia stage Venus 8.4.
For O=C(C[C@H]1CC[C@H]2[C@@H](COC[C@@H](O)CN2C(=O)c2ccc(F)cc2)O1)Nc1ccc(-c2ccccc2)cc1 the results were Vaccinia stage inconclusive.
For CC(C)NC(=O)N(C)C[C@@H]1OCCCC[C@H](C)Oc2ccc(NC(=O)CCC(F)(F)F)cc2C(=O)N([C@@H](C)CO)C[C@H]1C the results were Vaccinia stage 25.1 and Vaccinia stage Venus 10.1.
`COCC#Cc1ccc(CC[C@H]2O[C@H]3CC[C@H](CO)O[C@H]3C[C@@H]2n2cc(C(C)(C)O)nn2)cc1` gave Vaccinia stage 9.1 and Vaccinia stage Venus 4.7.
`C[C@H]1CCCCO[C@@H](CN(C)C(=O)Nc2ccc3c(c2)OCO3)[C@@H](C)CN([C@@H](C)CO)C(=O)c2cc(NC(=O)Nc3ccccc3)ccc2O1` gave Vaccinia stage -2.8 and Vaccinia stage Venus 0.0.
`CCC(=O)N1CCC2(CC1)CN(Cc1cccc(Cl)c1)[C@@H](CO)c1[nH]c3cc(OC)ccc3c12` gave Vaccinia stage 26.5 and Vaccinia stage Venus 10.7.
COc1ccc2c3c([nH]c2c1)[C@H](CO)N(C(=O)c1ccc(F)cc1)CC31CCN(C)CC1 was read as Vaccinia stage -6.3 and Vaccinia stage Venus -5.6.
Screening CO[C@@H](CN(C)Cc1ccc2c(c1)OCO2)[C@@H](C)CN(C(=O)Nc1ccc(F)cc1)[C@H](C)CO returned Vaccinia stage -4.9 and Vaccinia stage Venus -0.9.
Cc1cccc(-c2ccc([C@H]3[C@@H](CO)N4CCCCN(S(=O)(=O)c5cn(C)cn5)C[C@@H]34)cc2)c1 was read as Vaccinia stage -16.8 and Vaccinia stage Venus -12.0.
For C[C@@H]1CN([C@H](C)CO)C(=O)c2cc(NC(=O)Nc3cccc4ccccc34)ccc2O[C@H]1CN(C)C(=O)Nc1ccc(C(F)(F)F)cc1 the results were Vaccinia stage 5.9 and Vaccinia stage Venus 6.7.
Screening CC(=O)N(C[C@@H]1N[C@@H](CO)[C@H]1c1ccc(-c2ccccc2)cc1)C(C)C returned Vaccinia stage -34.0 and Vaccinia stage Venus -31.9.
C[C@@H]1CCCCO[C@H](CN(C)C(=O)c2ccncc2)[C@@H](C)CN([C@@H](C)CO)C(=O)c2cc(NC(=O)c3ccccc3)ccc2O1 was read as Vaccinia stage 10.3 and Vaccinia stage Venus 3.3.
`O=C(C[C@@H]1C=C[C@H](NC(=O)NC2CCCCC2)[C@H](CO)O1)NCc1ccc(Cl)cc1` gave Vaccinia stage -4.8 and Vaccinia stage Venus -5.3.
